# Bead autofluor: counter-screen for toxin protease inhibitors: compound fluorescence; AID 624483; 360,000 tested, 3.1% active; compound autofluorescence counterscreen, microsphere flow cytometry; stronger effect = higher value; fluorescence intensity (test concentration not listed);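 active = at least 3 SD above the mean of all compounds, about 16000 in these data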;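 note: 100 nL of 1 mM stock went into each well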
# * = called active by the depositor. These rows are one share of the data, so the mix of outcomes need not match the whole.
SMILES,Bead autofluor
CCN(Cc1cnn(C)c1)C(=O)c1ccc2nc(Cc3ccccc3F)oc2c1,3399
Nc1ccn([C@@H]2O[C@H](C(=O)N3CCN(c4ccc(Cl)cn4)CC3)[C@@H](O)[C@H]2O)c(=O)n1,4415
CCC(CC)C(=O)N(C)c1c(C)nc2c(OCc3ccc(F)c(F)c3)cccn12,3743
CCN(CC(=O)Nc1c(F)cccc1F)C(=O)C1CCCO1 (stereo unspecified),3749
CC1(C(=O)NS(=O)(=O)c2ccc(F)cc2F)CCN1C(=O)Cc1ccc(Cl)cc1Cl (stereo unspecified),3012
CCCCN1C(=O)C(CC(=O)NCc2cccs2)CC(C(=O)N(C(C)C)C(C)C)=C1C (stereo unspecified),3809
CC1=C(C(=O)N2CCCCCC2)CC(CC(=O)NC2CCCC2)C(=O)N1CCC1=CCCCC1 (stereo unspecified),5386
Cc1ccccc1CC1(CO)CCCN(C(=O)c2ccoc2)C1 (stereo unspecified),3877
CC(C)C[C@@H]1CC2=C(C(=O)OC(C)(C)O2)[C@H](c2ccc(Cl)cc2)O1,4316
COc1cccc(NC(=O)Nc2ccc(F)cc2)c1,3935
CC(C)NC(=O)C1(C)CCCN1C(=O)c1ccccc1Br (stereo unspecified),3140
Cc1ccc2nc(-c3ccc(F)cc3)c(Cc3ccccn3)n2c1,6447
NC(N)=NN=Cc1ccnc2ccccc12,5730
Nc1nc2ccccc2n1S(=O)(=O)c1ccc(Cl)cc1,2903
O=C(Nc1ccc2c(c1)OCCO2)C1c2ccccc2OCC(=O)N1CCc1ccccc1 (stereo unspecified),5445
C=CCSc1nnc(NC(=O)CCNC(=O)c2ccccc2Cl)s1,3632
CCOC(=O)Cc1ccc(Nc2nc(NCCOC)nc3ccsc23)cc1,3961
CCCNC(=O)C1(C)CCN(Cc2ccc(Cl)c(Cl)c2)C1 (stereo unspecified),4066
CCCCc1c(-c2ccccc2OC)ncn1CCc1cccc(OC)c1,4341
CCOC(=O)[C@]12Cc3cc(C)ccc3[C@H]1N(C)C(=O)c1ccccc12,6046
C[C@@H]1CN([C@H](C)CO)C(=O)c2cc(-c3ccccc3)cnc2O[C@@H]1CN(C)C(=O)C1CCOCC1,3640
Nc1ccn([C@@H]2O[C@H](CNCc3ccc(OCC(=O)Nc4nccs4)cc3)[C@@H](O)[C@H]2O)c(=O)n1,3348
CC(=O)C1=CCC(c2ccccc2)N(S(=O)(=O)c2ccc(Cl)cc2)C1 (stereo unspecified),4672
CC1(C(=O)NCCC(F)(F)F)Cc2c(-c3ccccc3)ccnc2O1 (stereo unspecified),3688
CCc1nc2ccc(C(=O)N(CC)CCN(C)C)cn2c1N(C)C(=O)c1cccc(OC)c1,3907
# The listing continues.
SMILES,Bead autofluor
COC(=O)c1ccccc1NC(=O)CSc1nc2ccsc2c(=O)n1Cc1ccc(C(=O)O)cc1,3419
C[C@@H]1CCCCO[C@H](CN(C)C(=O)c2ccccc2)[C@@H](C)CN([C@H](C)CO)C(=O)c2cc(NC(=O)c3ccncc3)ccc2O1,3849
CN1OC[C@@H]2CN(S(=O)(=O)c3cc(Cl)cc(Cl)c3)[C@H](c3ccc(-c4ccc(C#N)cc4)cc3)C[C@@H]21,5820
Cc1c(C(=O)NNC(=O)c2ccccc2O)oc2ccccc12,3916
Cc1ccc(C)c(N2N=C(C(=O)OCc3nnc(-c4ccccc4Br)o3)CCC2=O)c1,3587
CC1(C(=O)Nc2cccnc2)Cc2c(-c3ccccc3)ccnc2O1 (stereo unspecified),2821
COc1cc(C=NNC(=O)C(=O)Nc2cccc(Cl)c2)cc(OC)c1O,3946
OC(c1cccnc1)c1nc(/C=C/c2ccc(C(F)(F)F)cc2)cs1 (stereo unspecified),3509
Cc1noc(C)c1NC(=O)Nc1ccc2c(c1)C(=O)N([C@@H](C)CO)C[C@@H](C)[C@H](CN(C)C(=O)Nc1cccc3ccccc13)OCCCC[C@H](C)O2,3327
CC(=O)Nc1ccc(CN(C)c2c(C)nc3ccc(C(=O)N4CCN(C(C)=O)CC4)cn23)cc1,3796
CCOC(=O)CCCCCC(=O)Nc1ccc2c(c1)C(=O)N([C@@H](C)CO)C[C@H](C)[C@H](CN(C)C(=O)Nc1ccc(C(F)(F)F)cc1)OCCCC[C@H](C)O2,3088
C[C@H](CO)N1C[C@H](C)[C@@H](CN(C)C(=O)c2ccc3ccn(C)c3c2)OCc2cn(nn2)CCCC1=O,3683
Cc1sc2ccccc2c1CNC[C@H]1O[C@@H](n2ccc(=O)[nH]c2=O)[C@H](O)[C@@H]1O,6012
O=C(Nc1ccccc1)c1cc(C2CCCN(C(=O)OCc3ccccc3)C2)on1 (stereo unspecified),3673
COc1cccc(-c2cc3c(c4c2ccn4C)C2CCC3C2)c1 (stereo unspecified),4290
Clc1cccc(Cc2c(-c3cccc(Br)c3)nc3ccc(Cl)cn23)c1,13688
O=C(NC(c1ccccc1)c1ccsc1)C1CCN(CCOc2ccc(Cl)cc2Cl)CC1 (stereo unspecified),2883
O=c1ccc2nc3ccccc3sc-2c1,3920
COC(=O)[C@H]1C[C@H](OC(=O)NCc2ccccc2F)[C@@]2(O)CN(S(=O)(=O)c3ccc(C)cc3)CC2[C@H]1C(=O)OC (stereo partly specified),3682
O=[N+]([O-])c1cccc(CON=Cc2cc(Cl)ccc2O)c1,3679
COc1cccc(C(NC(C)=O)c2nc(-c3cccc4cccnc34)cs2)c1 (stereo unspecified),2892
CN1CCN(c2ccc(CNC(=O)c3ccc(-c4cnn(C)c4)c4ccoc34)cc2)CC1,3442
Cc1ccc(-c2nc3ccc(Cl)cn3c2CC2CCCCC2)cc1,4543
CCCCCCCCN1C(=O)[C@H](CC(=O)NCCC(C)C)C[C@@]2(C(=O)OCC)CCCC=C12,5816
COc1ccc(NC(=O)Nc2nnc([C@@H]3C[C@H](O)[C@@H](CO)O3)s2)cc1,3937
# Additional results:
SMILES,Bead autofluor
COc1ccc(-c2csc(C(C)(O)c3ccc(F)c(F)c3)n2)cc1 (stereo unspecified),2863
COc1ccc(Cn2cc(CN3CC(N4CCN(CCO)CC4)CS3(=O)=O)nn2)cc1 (stereo unspecified),4236
CC1(C(=O)NS(=O)(=O)c2ccc(Br)cc2)CCN1C(=O)CCc1ccccc1 (stereo unspecified),3813
Cc1ccc(S(=O)(=O)CCOC(=O)CNC(=O)OCc2ccccc2)cc1,3607
CC(=O)Nc1ccc(-c2ccnc3c2CC(C(=O)NCCc2ccccc2)O3)cc1 (stereo unspecified),2911
Cc1ccc(S(=O)(=O)NC[C@H]2O[C@@H](n3cnc4c(N)ncnc43)[C@H](O)[C@@H]2O)cc1,6128
Cc1ccc(-c2cc3nc(NCCc4ccncc4)n(C)c(=O)c3s2)cc1,3267
O=C1NC[C@H](Cc2ccc(O)cc2)N(C[C@@H]2CCCN2C[C@H](Cc2ccccc2)N2C[C@H](Cc3ccc(O)cc3)N(CCc3ccccc3)C(=O)C2=O)C1=O,4329
C1=C(c2cn(-c3nc4ccccc4s3)nn2)CCCC1,6122
CSCCC(c1nnnn1C(C)(C)C)N1CCC2(CC1)C(=O)NCN2c1ccccc1 (stereo unspecified),6057
C1C2CC3C1C3C2=NN=C1C2CC3C(C2)C13,3846
CC1(C(=O)Nc2ccc3c(c2)OCO3)CCN1C(=O)CCc1cccs1 (stereo unspecified),3583
c1ccc2c(C3OCC4(CCCC4)CO3)cccc2c1,2852
CCOC(=O)[C@]12Cc3c(cc(OC)c(OC)c3OC)[C@H]1N(C(C)C)C(=O)c1ccccc12,5838
C#Cc1cccc(Nc2nc(NCc3ccccc3OC)nc3ccsc23)c1,3717
Cc1cccc(-c2ccc3[nH]c4c(c3c2)CCN2C[C@H]3[C@H](C)ON(C)[C@H]3C[C@@H]42)c1,3062
CN(C)CCCOc1ccc(-c2cccc3nncn23)cn1,3890
COc1cccc(-c2cnc3c(NC(C)=O)cc(-c4cc(OC)c(OC)c(OC)c4)cn23)c1,3807
Cc1cc(Br)cn2c(Cc3ccsc3)c(C3CCCCC3)nc12,5502
C#CC(c1ccccc1)(c1ccccc1)n1ccnc1,3751
Cc1ccc(NC(=O)C2(C)CCCN2C)cc1C (stereo unspecified),4122
Cc1ccc(S(=O)(=O)N2CCC(C(=O)N3CCCCCCC3)CC2)cc1C,3185
Cc1cc(C)cc(CC(=O)N2CCC2(C)C(=O)NS(=O)(=O)c2cccc(OC(F)F)c2)c1 (stereo unspecified),3798
O=C1NC[C@H](CCCCN2CCN(Cc3ccccc3)C(=O)C2=O)N(CCC2CCCCC2)C1=O,6115
COc1cccc(CNC(=O)[C@@H]2CCCN2C(=O)[C@@H]2CCCN2S(=O)(=O)c2ccc(OC)c(C)c2)c1,5854

# Of the compounds above, 3 contain a furan ring, fused or not.
SMILES,Bead autofluor
Cc1ccccc1CC1(CO)CCCN(C(=O)c2ccoc2)C1 (stereo unspecified),3877
Cc1c(C(=O)NNC(=O)c2ccccc2O)oc2ccccc12,3916
CN1CCN(c2ccc(CNC(=O)c3ccc(-c4cnn(C)c4)c4ccoc34)cc2)CC1,3442

# A different layout for some results above.
O=[N+]([O-])c1cccc(CON=Cc2cc(Cl)ccc2O)c1
  Bead autofluor = 3679
CC1(C(=O)Nc2ccc3c(c2)OCO3)CCN1C(=O)CCc1cccs1 (stereo unspecified)
  Bead autofluor = 3583
CCCNC(=O)C1(C)CCN(Cc2ccc(Cl)c(Cl)c2)C1 (stereo unspecified)
  Bead autofluor = 4066

# Back to the main list with the two entries that preceded the break.
SMILES,Bead autofluor
O=C1NC[C@H](CCCCN2CCN(Cc3ccccc3)C(=O)C2=O)N(CCC2CCCCC2)C1=O,6115
COc1cccc(CNC(=O)[C@@H]2CCCN2C(=O)[C@@H]2CCCN2S(=O)(=O)c2ccc(OC)c(C)c2)c1,5854
Cc1ccc(NC(=O)c2cc(S(=O)(=O)NCC3CCCO3)ccc2F)cc1 (stereo unspecified),4158
COc1ccc(-c2coc3c(C(=O)NCc4cccs4)cccc23)c(C)c1,3922
CCOC(=O)[C@]12Cc3c(cc(OC)c(OC)c3OC)[C@H]1N(CCC(=O)OC)C(=O)c1cc(OC)ccc12,5953
CCCC(C)(C)C(=O)N1CCC1(C)C(=O)Nc1ccc2c(c1)OCCO2 (stereo unspecified),3350
CC1C(c2ccccc2)OCCN1C(=S)NC(=O)c1ccccc1 (stereo unspecified),3419
CCc1nc2ccc(C(=O)NCCCN3CCCC3=O)cn2c1N(C)C(=O)COc1ccccc1,2887
CCCCn1nnnc1C1(C)CCC(=O)N1Cc1cccc(F)c1 (stereo unspecified),5922
CCCS(=O)(=O)NC(=O)C1(C)CCN(C(=O)c2oc3ccccc3c2C)C1 (stereo unspecified),3879
CCCCC[C@H](C)N1C[C@H](COCc2ccccc2)Oc2cc(N3CCC[C@H]3C(N)=O)ccc2S1(=O)=O,4577
Fc1ccccc1CNc1nc(NCC2CC2)nc2ccsc12,3603
COc1ccccc1-c1cccc(-c2nc(C(=O)N3CCCCC3)cc3c2[C@H](CCO)N(S(=O)C(C)(C)C)C3)c1 (stereo partly specified),6093
COc1ccc(C=C2CS(=O)(=O)CC(=Cc3ccc(OC)cc3)C2=O)cc1,3547
COC1=Nc2ccccc2/C=C\c2ccccc21,3647
COCCNC(=O)C1(C)CCCN(Cc2cc(C(F)(F)F)ccc2Cl)C1 (stereo unspecified),3575
CCCNC(=O)C1(C)CCN(C(=O)C2(c3ccc(Cl)cc3)CCCC2)C1 (stereo unspecified),3512
COc1ccc(-c2nc3ccc(Br)cn3c2Cc2ccccc2)cc1OC,6190
CN1CCN(C2CN(C3CCCCC3)S(=O)(=O)C2)CC1 (stereo unspecified),6254
COC(=O)[C@@H]1N=C(c2ccc(OC)cc2)O[C@]12C(=O)N(C)c1cccc(Cl)c12,5853
COc1ccc(C(=O)N2CCC2(C)C(=O)NC(C)C)cc1 (stereo unspecified),3762
CC1(C(=O)NS(=O)(=O)C2CC2)CCCN(C(=O)c2cccs2)C1 (stereo unspecified),3728
COc1ccccc1NS(=O)(=O)c1cc(N/C(=N/S(=O)(=O)c2ccccc2)c2ccc(F)cc2)ccc1Cl,3352
Cc1ccc2nc(-c3ccco3)c(Cc3ccccc3)n2c1,6441
Cc1cc(F)cc(-c2cc(C(=O)NCC3CCCCC3)[nH]n2)c1,4013
CC(C)NC(=O)C1(C)CCN1C(=O)C/C=C/c1ccccc1 (stereo unspecified),3039
C[C@@H]1COc2cccc(N(C)CCO)c2S(=O)(=O)N1,5613
# Next records:
SMILES,Bead autofluor
OC[C@H]1O[C@@H](c2nc(-c3cccc4ccccc34)no2)[C@H](O)[C@@H]1O,2815
COc1ccc(OCCNC(=O)c2ccc3nc(C)c(N(C)C(=O)CCc4ccccc4)n3c2)cc1,3530
COc1ccc([C@H]2CC(=O)C[C@@H](CCn3cc(Cc4ccccc4)nn3)O2)cc1,6122
CCN(CC)C(=O)C1=C(C)N(Cc2ccc(F)cc2)C(=O)C(CC(=O)NCCN2CCOCC2)C1 (stereo unspecified),3461
CCN(CC)C(=O)C1=C(C)N(CCC2=CCCCC2)C(=O)C(CC(=O)NCc2cccs2)C1 (stereo unspecified),3401
Cc1cccc(C)c1NC(=O)CN1CCN(C(=O)CCC(=O)N2CCC(c3ccccc3)=N2)CC1,3831
CN1[C@@H](COCc2ccccc2)C=CS1(=O)=O,6297
COCCNC(=O)C1(C)CCN(C(=O)c2ccc(F)c(C)c2)C1 (stereo unspecified),3039
Cc1cn([C@H]2C[C@H](O)[C@@H](CNCc3cnc(N4CCOCC4)s3)O2)c(=O)[nH]c1=O,3710
C[C@H](CO)N1C[C@H](C)[C@H](CN(C)Cc2ccncc2)Oc2cc(-c3ccccc3F)ccc2S1(=O)=O,3399
C/C=C/c1cccc(-c2nc(C(=O)N3CCN(C)CC3)cc3c2[C@@H](CCO)N(C(=O)NC(C)C)C3)c1,5893
